Source: PubChem BioAssay
Beta cell apopt – inhibitors of cytokine-induced beta cell apoptosis, primary screen, luminescence; INS-1E cytokine-induced death, ATP luminescence, 48 h; percent of positive-control rescue, neutral wells zero; protection from apoptosis, % (no concentration beside the values); 300,000 compounds, 0.8% hits; AID 435005, 2010;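 active = all replicates at 75% or more, or half of them and the mean; inconclusive = half reach 75% but not the mean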;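 note: 0% = cytokine-treated negative control wells and 100% = positive control rescue; higher means more ATP so stronger rescue from cytokine killing; wells of about 40 µL received 100 nL stock; the first replicate is given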
T cruzi inh – inhibitors of intracellular T. cruzi growth, primary screen, luminescence, NIH3T3 host cells | T. cruzi beta-gal in NIH3T3, 90 h | inhibition, % (no concentration beside the values) | 300,000 compounds, 1.4% hits | AID 1885, 2009;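 active = mean inhibition across valid replicates above about 55%, limit read from the data; inconclusive = mean below that limit but half or more replicates reach it; inactive = mean below it, under half of replicates reach it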;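 note: signal also drops with host cell toxicity which is not excluded here; 0% = plate median of DMSO wells and 100% = zero luminescence signal; higher percent means less beta-gal luminescence so fewer parasites; stock transfer was 50 nL into about 50 µL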
ALR H2O2 inh – inhibitors of human ALR sulfhydryl oxidase, primary screen, biochemical, H2O2 detection, HRP-luminol luminescence, single point. FAD-linked sulfhydryl oxidase ALR (Homo sapiens), P55789. purified ALR, DTT oxidation. inhibition, % (concentration not given with the values). 290,000 compounds, 3.8% hits. AID 485317, 2010;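 active = mean and each replicate at 75% or more; inconclusive = only one of the two met; inactive = neither met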;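 note: stock transfer was 7.5 nL into about 7.5 µL; 0% = neutral wells and 100% = wells with inactivated enzyme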
Target sequence (P55789 whole entry, looked up): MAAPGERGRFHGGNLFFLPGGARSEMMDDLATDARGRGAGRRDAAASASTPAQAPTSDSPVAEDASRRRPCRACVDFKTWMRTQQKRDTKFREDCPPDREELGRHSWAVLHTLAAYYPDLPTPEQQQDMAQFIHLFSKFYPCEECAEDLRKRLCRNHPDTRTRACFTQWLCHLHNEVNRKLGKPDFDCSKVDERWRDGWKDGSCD
Ecoli rRNA inh – reduced GFP signal of wild-type E. coli, primary screen, bacterial rRNA inhibitor project, GFP/RFP fluorescence, OD600, single point | AID 720706, 2013 | E. coli WT GFP vs humanized-ribosome RFP mutants, 24 h; hits give low values; DMSO median 0, no signal -100 | 350,000 compounds, 1.6% hits | GFP signal change (wild-type ribosome), % (no concentration beside the values);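 active = significant combined selectivity score with lowered wild-type GFP, culture density cut under 30%, mutant RFP and density less affected; inactive = any of these conditions unmet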; note: one replicate is shown; some compounds called inactive have numbers as strong as hits
RanGTP-Impb inh – inhibitors of RanGTP-importin-beta interaction, primary screen, biochemical, FRET, CFP-Ran, YFP-importin-beta, homogeneous; Ran GTPase (GTP-bound) - importin-beta complex; cell-free CFP-Ran/YFP-importin-beta FRET ratio; inhibition, % (test concentration not listed); 300,000 compounds, 1.1% hits; AID 2216, 2009;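 active = most replicates above 15%; inconclusive = exactly half above 15%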;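 note: 0% = DMSO wells and 100% = Ran loaded with GDP instead of GTP; wells of about 40 µL received 100 nL stock; the first replicate is given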
AF4-AF9 inh – inhibitors of AF4 peptide binding to AF9, primary screen, biochemical, AlphaScreen, biotin-AF4 peptide, FLAG-AF9, single point. Protein AF-9 (Homo sapiens), P42568. inhibition, % at 10 µM. 350,000 compounds, 0.47% hits;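 active = every replicate reaching a set inhibition limit, whatever the replicate mean, cut at about 25% in these data; inconclusive = mean inhibition reaches that limit but some replicates miss it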;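 note: 0% = plate neutral control median and 100% = total signal loss; the record names both 10 and 1 µM as test concentration; the first replicate is given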
Target sequence (P42568 whole entry, looked up): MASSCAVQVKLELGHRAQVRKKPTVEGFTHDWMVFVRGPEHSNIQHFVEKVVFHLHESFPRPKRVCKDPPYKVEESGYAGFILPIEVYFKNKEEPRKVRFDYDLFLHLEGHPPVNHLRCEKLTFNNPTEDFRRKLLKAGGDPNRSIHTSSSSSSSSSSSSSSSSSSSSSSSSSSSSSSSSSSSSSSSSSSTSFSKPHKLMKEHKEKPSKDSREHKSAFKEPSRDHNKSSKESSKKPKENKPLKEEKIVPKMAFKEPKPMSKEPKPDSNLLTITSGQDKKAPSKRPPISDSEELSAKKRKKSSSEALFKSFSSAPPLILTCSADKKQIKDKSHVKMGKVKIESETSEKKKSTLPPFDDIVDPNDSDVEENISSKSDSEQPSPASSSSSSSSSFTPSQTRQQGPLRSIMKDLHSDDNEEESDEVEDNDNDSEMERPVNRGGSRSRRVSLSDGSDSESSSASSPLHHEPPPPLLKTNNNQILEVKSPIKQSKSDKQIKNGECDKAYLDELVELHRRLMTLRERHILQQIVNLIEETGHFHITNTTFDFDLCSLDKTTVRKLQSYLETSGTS
FGF22 binding – binders of human FGF22 protein, primary screen, FGF22 synaptogenesis inhibitor project, biophysical, thermal shift, single point | calls only at 9.99 µM | 340,000 compounds, 1.5% hits | recombinant FGF22 thermal shift, SYPRO orange fluorescence; percent of sucrose octasulfate shift, DMSO zero | Fibroblast growth factor 22 (Homo sapiens), Q9HCT0;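 active = melting point raised past a set limit in the mean and every replicate; inconclusive = no clear call; three in four hits are not shown here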
Target sequence (Q9HCT0 whole entry, looked up): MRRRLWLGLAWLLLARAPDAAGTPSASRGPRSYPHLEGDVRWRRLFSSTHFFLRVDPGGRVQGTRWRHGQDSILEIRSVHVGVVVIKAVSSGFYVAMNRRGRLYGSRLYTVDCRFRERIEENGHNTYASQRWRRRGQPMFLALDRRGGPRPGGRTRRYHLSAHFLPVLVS
Calb FLC – C. albicans growth inhibition with fluconazole, primary screen, CaCi-2 strain, Alamar Blue fluorescence. 300,000 compounds, 0.57% hits. C. albicans CaCi-2 (fluconazole-resistant clinical isolate) + fluconazole, 48 h. growth inhibition, % (concentration not given with the values);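 active = most replicates above 75%; inconclusive = exactly half above 75%; inactive = most below 75%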;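 note: all wells also contain fluconazole at 8 µg/ml as a sub-toxic cotreatment; 0% = median of DMSO wells and 100% = median of geldanamycin control wells; wells of about 8 µL received 7.5 nL stock; the first replicate is given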
Ecoli rRNA inh OD600 – second read-out of Ecoli rRNA inh, no call of its own (marks repeat the call); OD600 change, %; measured here: OD600 growth;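 optical density of the mix in the first replicate; 0 = DMSO median and -100 = no signal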
Ecoli rRNA inh RFP – also measured in Ecoli rRNA inh; calls as there; RFP signal change, %; measured here: RFP humanized mutant strains;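 first replicate; 0 = DMSO median and -100 = no signal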
Numbers without * were called inactive. These rows are one share of the data, so the mix of outcomes need not match the whole.

For O=C(CNC(=S)N(Cc1ccccc1F)C1CCCCC1)NCC1CCCO1 (stereo not drawn) the results were Beta cell apopt -3, T cruzi inh 0, ALR H2O2 inh -24, Ecoli rRNA inh -32*, RanGTP-Impb inh 0.8, AF4-AF9 inh -3.6, FGF22 binding inactive, Calb FLC -6, Ecoli rRNA inh OD600 22* and Ecoli rRNA inh RFP -8.3*.
COc1ccc(-c2nn(-c3ccccc3)cc2C(=O)N2CCN(C(=O)c3ccco3)CC2)cc1 was read as Beta cell apopt -6, ALR H2O2 inh -5, Ecoli rRNA inh 8, AF4-AF9 inh -0.7, FGF22 binding inactive, Ecoli rRNA inh OD600 22 and Ecoli rRNA inh RFP 1.7.
`CCN=C1SC(CC(=O)Nc2sc(C)c(C)c2C(=O)OC)C(=O)N1CC` (stereo not drawn) gave Beta cell apopt -2, T cruzi inh 12, ALR H2O2 inh 0, RanGTP-Impb inh -1.7 and Calb FLC 11.
Screening O=C(COC(=O)C1CCCCC1)Nc1ccccc1OC(F)F returned Beta cell apopt -3, T cruzi inh -6, ALR H2O2 inh 37, Ecoli rRNA inh 5, RanGTP-Impb inh -1.4, AF4-AF9 inh -1.2, Calb FLC -8, Ecoli rRNA inh OD600 10 and Ecoli rRNA inh RFP -0.3.
`O=c1nc2n(c3ncccc13)CCCCC2` gave Beta cell apopt -2, T cruzi inh -13, ALR H2O2 inh -3, Ecoli rRNA inh 7, RanGTP-Impb inh -0.4, AF4-AF9 inh 0.7, FGF22 binding inactive, Calb FLC 5, Ecoli rRNA inh OD600 2 and Ecoli rRNA inh RFP -1.7.
For COc1ccc(N2CCN(C(=O)C3(C)CC3(Cl)Cl)CC2)cc1 (stereo not drawn) the results were Beta cell apopt 3, T cruzi inh -1, ALR H2O2 inh 99*, RanGTP-Impb inh -2.3 and Calb FLC -28.
CCc1ccccc1NC(=O)NCc1ccc2c(c1)OCO2 was read as Beta cell apopt -2, T cruzi inh -10, ALR H2O2 inh 0, Ecoli rRNA inh 1, RanGTP-Impb inh 3.7, AF4-AF9 inh 0.5, FGF22 binding inactive, Calb FLC -5, Ecoli rRNA inh OD600 6 and Ecoli rRNA inh RFP -1.9.
For CC1CCN(CCOCCOc2ccccc2Br)CC1 the results were Beta cell apopt 4, T cruzi inh 39, RanGTP-Impb inh -0.4, AF4-AF9 inh 0.2, FGF22 binding inactive and Calb FLC -18.
Screening O=C(COC(=O)CC1CCCC1)Nc1cccc(F)c1 returned Beta cell apopt -5, Ecoli rRNA inh -2, AF4-AF9 inh -0.4, FGF22 binding inactive, Ecoli rRNA inh OD600 4 and Ecoli rRNA inh RFP 1.9.
O=C(COc1cccc(-n2cnnn2)c1)NCCC1=CCCCC1 was read as Beta cell apopt -2, T cruzi inh -8, ALR H2O2 inh -2, RanGTP-Impb inh 3.3 and Calb FLC 2.
`O=S(=O)(NC1CCCC1)c1ccc(Br)s1` gave Beta cell apopt -2, T cruzi inh 9, ALR H2O2 inh 1, Ecoli rRNA inh -10, RanGTP-Impb inh 0.3, AF4-AF9 inh 3.8, FGF22 binding inactive, Calb FLC -23, Ecoli rRNA inh OD600 2 and Ecoli rRNA inh RFP -0.7.
`COc1ccc(/C=C/C(=O)c2ccc[nH]2)cc1OC` gave Beta cell apopt -2, T cruzi inh -5, ALR H2O2 inh 16, Ecoli rRNA inh -1, RanGTP-Impb inh 1.2, Calb FLC -7, Ecoli rRNA inh OD600 7 and Ecoli rRNA inh RFP 0.6.
For CC(C)c1nc(SCC(=O)Nc2cccc3ccccc23)n[nH]1 the results were Beta cell apopt 3, ALR H2O2 inh -17, AF4-AF9 inh 0.3 and FGF22 binding inactive.
CCCc1cc(=O)[nH]c(SCC(=O)N2CCc3cc(OC)c(OC)cc3C2)n1 was read as Beta cell apopt 7, Ecoli rRNA inh -1, AF4-AF9 inh -11, FGF22 binding inactive, Ecoli rRNA inh OD600 5 and Ecoli rRNA inh RFP -1.2.
For O=C(COC(=O)/C=C/c1cccc(C(F)(F)F)c1)NCc1cccs1 the results were Beta cell apopt -4, ALR H2O2 inh -1, Ecoli rRNA inh 5, AF4-AF9 inh -0.1, FGF22 binding inactive, Ecoli rRNA inh OD600 10 and Ecoli rRNA inh RFP 2.2.
CC1(C)CC(=O)C/C(=N/NC(=O)C2CCN(S(=O)(=O)c3cccs3)CC2)C1 was read as Beta cell apopt -2, T cruzi inh -14, ALR H2O2 inh 31, Ecoli rRNA inh -2, RanGTP-Impb inh 6.7, AF4-AF9 inh -2.6, FGF22 binding inactive, Calb FLC inconclusive, Ecoli rRNA inh OD600 3 and Ecoli rRNA inh RFP 0.1.
COc1ccccc1N(CC(=O)NCc1ccco1)S(=O)(=O)c1ccc(C)cc1 was read as Beta cell apopt -3, T cruzi inh 5, ALR H2O2 inh 9, Ecoli rRNA inh -6, RanGTP-Impb inh -2.2, AF4-AF9 inh -2.6, FGF22 binding inactive, Calb FLC 12, Ecoli rRNA inh OD600 -2 and Ecoli rRNA inh RFP 1.5.
For CCOC(=O)C1CCN(C(=O)Nc2ccc(OCc3ccccc3)cc2)CC1 the results were Beta cell apopt -1, T cruzi inh 5, ALR H2O2 inh -3, Ecoli rRNA inh 13, RanGTP-Impb inh 1.2, AF4-AF9 inh 1.8, FGF22 binding inactive, Calb FLC -8, Ecoli rRNA inh OD600 5 and Ecoli rRNA inh RFP 4.3.
Cc1cc(Oc2ccccc2)nc(-c2ccccc2O)n1 was read as Beta cell apopt 6, T cruzi inh 21, ALR H2O2 inh -18, RanGTP-Impb inh -0.5 and Calb FLC 104*.
`Cc1ccccc1SCC(=O)NCC(c1ccc(F)cc1)N1CCOCC1` (stereo not drawn) gave Beta cell apopt 0, ALR H2O2 inh -1, AF4-AF9 inh 2.2 and FGF22 binding inactive.
CCN(CC)C(=O)N1c2ccccc2CC(N(CC)CC)c2ccccc21 (stereo not drawn) was read as Beta cell apopt -8, T cruzi inh 14, ALR H2O2 inh -2, RanGTP-Impb inh 5.0 and Calb FLC 6.
`CCCCOP(=O)(c1ccc(N(C)C)cc1)C(O)c1ccc(OC)cc1` (stereo not drawn) gave Beta cell apopt -2, T cruzi inh -10, ALR H2O2 inh 21, Ecoli rRNA inh 0, RanGTP-Impb inh 0.0, AF4-AF9 inh 1.9, FGF22 binding inactive, Calb FLC 7, Ecoli rRNA inh OD600 2 and Ecoli rRNA inh RFP 3.6.
Screening NS(=O)(=O)c1cccc(NC(=O)CSc2nc3ccccc3c(=O)n2CCCN2CCOCC2)c1 returned Beta cell apopt -4, T cruzi inh 4, Ecoli rRNA inh 3, RanGTP-Impb inh 0.8, AF4-AF9 inh inconclusive, FGF22 binding inactive, Calb FLC -3, Ecoli rRNA inh OD600 6 and Ecoli rRNA inh RFP -3.4.
For O=S(=O)(c1ccc(Br)s1)N1CCN(c2ccccn2)CC1 the results were Beta cell apopt 1, T cruzi inh 15, ALR H2O2 inh -10, RanGTP-Impb inh 1.0 and Calb FLC -7.
NNC(=O)CSCc1ccc(Cl)cc1Cl was read as Beta cell apopt -2, T cruzi inh 0, ALR H2O2 inh inconclusive, RanGTP-Impb inh -7.4 and Calb FLC -3.
Screening CC(C)(C)N(Cc1ccccc1)C(=O)COC(=O)c1ccc(N2CCCC2=O)cc1 returned Beta cell apopt -4, ALR H2O2 inh -1, Ecoli rRNA inh -7, AF4-AF9 inh -5.4, FGF22 binding inactive, Ecoli rRNA inh OD600 3 and Ecoli rRNA inh RFP 9.8.
`O=C1c2ccccc2S(=O)(=O)c2cc(C(=O)N3CCC(C(=O)N4CCCCC4)CC3)ccc21` gave Beta cell apopt 1, T cruzi inh -1, Ecoli rRNA inh 2, RanGTP-Impb inh 1.5, AF4-AF9 inh -9.3, FGF22 binding inactive, Calb FLC 12, Ecoli rRNA inh OD600 9 and Ecoli rRNA inh RFP 1.4.
Screening COc1ccc(N2C(=O)N3[C@@H]4c5ccccc5OC[C@@H]4[C@@H](c4ccccc4)[C@@]3(C)C2=O)cc1 returned Beta cell apopt -3, ALR H2O2 inh 3, Ecoli rRNA inh 10, FGF22 binding inactive, Ecoli rRNA inh OD600 7 and Ecoli rRNA inh RFP -1.4.
Screening COC(=O)c1cc(S(=O)(=O)N2CCN(C3CCCCC3)CC2)c[nH]1 returned Beta cell apopt 5, T cruzi inh -18, ALR H2O2 inh 1, RanGTP-Impb inh 6.8 and Calb FLC -1.
`CC(=O)Nc1ccc(NC(=O)CNC(=O)c2cccc(C)c2)cc1` gave Beta cell apopt -2, T cruzi inh -11, ALR H2O2 inh -1, Ecoli rRNA inh 2, RanGTP-Impb inh 8.5, AF4-AF9 inh -2.7, FGF22 binding inactive, Calb FLC -14, Ecoli rRNA inh OD600 8 and Ecoli rRNA inh RFP -2.0.
`CC1CCc2c(C(=O)NCCN3CCOCC3)csc2C1` (stereo not drawn) gave Beta cell apopt -6, T cruzi inh 4, ALR H2O2 inh -3, RanGTP-Impb inh inconclusive and Calb FLC 31.
`CCC(C)c1ccc(NC(=S)NCc2cccnc2)cc1` (stereo not drawn) gave Beta cell apopt -8, T cruzi inh -15, ALR H2O2 inh -1, RanGTP-Impb inh -0.3 and Calb FLC inconclusive.
Screening Cc1cc(OCc2cc(C(=O)N3CCC(Oc4cccnc4)CC3)no2)cc(C)c1Cl returned T cruzi inh 28, ALR H2O2 inh -6, Ecoli rRNA inh -44, RanGTP-Impb inh 1.2, AF4-AF9 inh 0.0, FGF22 binding inactive, Calb FLC 7, Ecoli rRNA inh OD600 -70 and Ecoli rRNA inh RFP -1.0.
`CCN1CCc2nc3ccccc3c(C(=O)Nc3ccc(NC(C)=O)cc3)c2C1` gave Beta cell apopt 0, T cruzi inh 4, ALR H2O2 inh -10, Ecoli rRNA inh 4, RanGTP-Impb inh 2.0, AF4-AF9 inh -16, FGF22 binding inactive, Calb FLC -10, Ecoli rRNA inh OD600 7 and Ecoli rRNA inh RFP -1.8.
`CCOC(=O)C1=C(COC(=O)COc2ccccc2OCC)NC(=O)NC1C` (stereo not drawn) gave Beta cell apopt -7, T cruzi inh -5, ALR H2O2 inh -10, Ecoli rRNA inh 1, RanGTP-Impb inh -0.7, AF4-AF9 inh -3.8, FGF22 binding inactive, Calb FLC -2, Ecoli rRNA inh OD600 -1 and Ecoli rRNA inh RFP -2.3.
Screening CCN(Cc1nc(-c2cccc(Cl)c2)no1)CC1CCCO1 (stereo not drawn) returned Beta cell apopt -6, T cruzi inh 6, ALR H2O2 inh -10, Ecoli rRNA inh -2, RanGTP-Impb inh -5.1, AF4-AF9 inh 0.6, FGF22 binding inactive, Calb FLC -13, Ecoli rRNA inh OD600 -4 and Ecoli rRNA inh RFP -3.0.
